H5N1 antiviral: MDCK cell protection from H5N1 avian flu | cytopathic effect, luminescence, 72 h; active compounds read high; no value below 0 was filed and about half of the inactive calls have no number; reference of the scale not given here | inhibition, % at 50 µM | 0.07% of 96,000 active; in the data active = inhibition above about 25%
Active calls of the source: *; i = inactive.

SMILES	H5N1 antiviral
COC(=O)[C@@H](NC(=O)NCc1ccccc1F)C(C)C	1.3
COc1ccc(F)cc1S(=O)(=O)Nc1ccc(C)cc1	i
CCOC(=O)Nc1cccc(NC(=O)c2cc(OC)cc(OC)c2)c1	i
COc1ccc(-n2nnnc2SCC(=O)Nc2nnc(C)s2)cc1OC	i
CCOc1ccccc1Oc1c(C)oc2cc(OC(=O)N3CCOCC3)ccc2c1=O	0.6
Oc1ccc2ccccc2c1C=NCc1cn2ccsc2n1	i
CC1(C)CC(=O)c2cnc(N3CCc4ccccc4C3)nc2C1	i
O=C(COC(=O)[C@H](Cc1ccccc1)NC(=O)c1ccco1)NCc1ccccc1	0.6
O=C(c1ccc2snnc2c1)N1CCSCC1	7.4
COC(=O)C1(S(=O)(=O)C2(C(=O)OC)CCCC2)CCCC1	0.2
Cc1c(NC(=O)CSC2=C(C#N)C(c3ccccc3F)CC(=O)N2)c(=O)n(-c2ccccc2)n1C (configuration not stated)	0.1
Cc1cc(NC(=O)CN2CCC(n3nnc4cc(C(F)(F)F)ccc43)CC2)no1	i
Cc1nnc(SCCC(C)C)[nH]c1=O	0.3
Cc1nc2sc(C(=O)O)c(N)c2c2c1COC(C)(C)C2	2.5
COc1cccc(-c2nc3n(n2)C(c2cccs2)C(C(=O)Nc2cccnc2)=C(C)N3)c1 (configuration not stated)	i
COc1ccccc1-c1nnc(NC(=O)c2ccc(S(=O)(=O)N(C)C)cc2)o1	i
COc1ccc(CNS(=O)(=O)c2ccc3c(c2)CCN3C(=O)C2CC2)cc1	i
O=C(On1c(-c2ccccc2)nc2ccccc2c1=O)c1ccco1	0.7
Cc1cccc(NC(=O)CC2Nc3cccc4cccc(c34)NC2=O)c1 (configuration not stated)	1.3
COc1cc(CC(=O)NCCc2ccc(OCc3ccccc3)cc2)c([N+](=O)[O-])cc1OC	1.5
Cc1ccc(C2CN=NC23CCc2ccccc2C3=O)cc1 (configuration not stated)	0.2
CCOC(=O)c1ccc(NC(=O)C2CCN(S(=O)(=O)CC)CC2)cc1	1.2
CCOC(=O)Cn1nnnc1C(CC)N(Cc1ccccc1)Cc1cc2cc(C)ccc2[nH]c1=O (configuration not stated)	i
O=P(N1CCCCC1)(N1CCCCC1)C(Cl)(Cl)Cl	1.0

In the list so far, these have a halogen.
SMILES	H5N1 antiviral
COC(=O)[C@@H](NC(=O)NCc1ccccc1F)C(C)C	1.3
COc1ccc(F)cc1S(=O)(=O)Nc1ccc(C)cc1	i
Cc1c(NC(=O)CSC2=C(C#N)C(c3ccccc3F)CC(=O)N2)c(=O)n(-c2ccccc2)n1C (configuration not stated)	0.1
Cc1cc(NC(=O)CN2CCC(n3nnc4cc(C(F)(F)F)ccc43)CC2)no1	i
O=P(N1CCCCC1)(N1CCCCC1)C(Cl)(Cl)Cl	1.0

Later entries.
SMILES	H5N1 antiviral
CCOC(=O)N1CCN(C(=O)CN2C(=O)CC(C)(C)S(=O)(=O)c3ccccc32)CC1	i
Cc1cc2ncn(C(=O)c3c(-c4ccccc4)noc3C)c2cc1C	i
CC(=O)C1=C(C)NC(SCC(N)=O)=C(C#N)C1C (configuration not stated)	0.6
COC(=O)c1[nH]c2ccc(C)cc2c1NS(=O)(=O)c1ccc(F)cc1	i
OCCCc1nc2n(n1)C(c1ccccc1)C=C(c1ccc(F)cc1)N2 (configuration not stated)	i
COc1ccc(OC)c(C2=Nn3c(nnc3-c3cccc(OC(C)C)c3)SC2)c1	1.4
Cn1c(=O)c2c(nc(Oc3ccc4ccccc4c3)n2C)n(C)c1=O	0.2
Cc1nn(-c2ccccn2)c2c1-c1nc(N3CCOCC3)ncc1CC2	i
CCN(C(=O)c1cccs1)c1nnc(-c2ccncc2)s1	1.4
O=C(O)CCC(=O)NNC(=O)CCCOc1ccc(Cl)cc1Cl	i
COC(=O)CSc1nc2c(c(=O)n(C)c(=O)n2C)n1CCC(C)C	1.6
O=C(Nc1ccc(Cl)cc1)NC1(C(=O)NCCCN2CCOCC2)CCCCC1	i

Quoted from the listing:
`Cn1c(=O)c2c(nc(Oc3ccc4ccccc4c3)n2C)n(C)c1=O` @ H5N1 antiviral: 0.2
`COC(=O)CSc1nc2c(c(=O)n(C)c(=O)n2C)n1CCC(C)C` @ H5N1 antiviral: 1.6
`CC(=O)C1=C(C)NC(SCC(N)=O)=C(C#N)C1C` (configuration not stated) @ H5N1 antiviral: 0.6

Later entries.
SMILES	H5N1 antiviral
CC(=O)c1c(O)c(C)c(-c2ccccc2)n(-c2ccccc2)c1=O	i
Cc1ccc(C)c(NC(=S)NNC(=O)c2sccc2C)c1	0.3
O=C(O)C1C2C=CC(C2)C1C(=O)NCc1ccccn1 (configuration not stated)	i
Cc1cc(N2C(=O)C3CCCN3C2c2ccccc2)no1 (configuration not stated)	0.3
COc1ccc(S(=O)(=O)N(CC(=O)N/N=C/c2cccs2)c2ccc(C)cc2)cc1OC	2.0
O=C(NCC1CCCO1)c1ccc(COc2ccc(F)cc2)o1 (configuration not stated)	i
CN(CC(=O)Nc1ccccc1C(=O)N1CCCC1)S(=O)(=O)c1ccc(Cl)cc1	i
COc1ccc2oc(=O)c(C(C)=O)cc2c1	i
Cc1c(O)ccc(-c2[nH]ncc2-c2nc3ccccc3s2)c1O	0.0
COc1cccc(N2C(=O)CC(N3CCC(C(N)=O)(N4CCCCC4)CC3)C2=O)c1 (configuration not stated)	i
Cc1nn(C)c(C)c1/C=N/N=C1\CCC2C3CCc4cc(O)ccc4C3CCC12C (configuration not stated)	i
Cc1nnc2n(Cc3ccccc3)c(=O)c3c4c(sc3n12)COC(C(C)C)C4 (configuration not stated)	6.3
CC1(C)Cc2c(C#N)c(SCc3nc4ccccc4[nH]3)nc(N3CCOCC3)c2CO1	0.4
C=CCn1c(C(CCC(C)C)CC(C)(C)O)n[nH]c1=S (configuration not stated)	0.6
Cc1ccc(NC(=O)C2CCCN(S(=O)(=O)c3cnc[nH]3)C2)c(Br)c1 (configuration not stated)	0.8
Cc1ccccc1Sc1ncnc2onc(C)c12	1.0
Cc1ccc(C)c(-n2c(CNC(=O)c3ccco3)nnc2SCC(=O)Nc2nnc(C)s2)c1	0.7
CC(C)Oc1ccc(C(=O)O)c(C(=O)O)c1	i
O=C(OCC(=O)c1c[nH]c2ccccc12)c1ccco1	0.5
CCCCCn1c(C(Cc2ccccc2)NC(C)=O)nc2ccccc21 (configuration not stated)	1.1
O=C(CN(C(=O)Cn1nnc(-c2ccccc2F)n1)c1cccc2c1CCCC2)NCc1ccccc1	1.0
O=C(NCc1cccnc1)C1CCCCN1S(=O)(=O)c1ccc(F)cc1 (configuration not stated)	i
O=C(NCCC1=CCCCC1)c1ccc(=O)oc1	i
CCN(CC)C(=O)C1=C(C)Nc2nnnn2C1c1cccnc1 (configuration not stated)	1.5
Cn1c(=O)oc2cc(S(=O)(=O)NC3CCCCCCC3)ccc21	1.0
O=C(NCC(=O)N(CC1CCCO1)C1(C(=O)NC2CCCCC2)CCCCC1)c1ccccc1 (configuration not stated)	1.4
Cc1cccc(NC(=O)C23CCC(C)(/C(=N/O)C2)C3(C)C)c1 (configuration not stated)	2.8
COC(=O)C1CN(S(=O)(=O)c2ccc(C)cc2)CCN1S(=O)(=O)c1ccc(C)cc1 (configuration not stated)	2.5
CCOc1ccc(-n2c(N)c(C(=O)NCC3CCCO3)sc2=S)cc1 (configuration not stated)	i
CCCCn1c(CN2CCN(C(=O)OCC)CC2)nc2c1c(=O)[nH]c(=O)n2C	1.8
CN(Cc1ccccc1)C(=C(Cl)Cl)/C(=C1/NCCN1Cc1ccc(Cl)nc1)[N+](=O)[O-]	1.0
COC1CCCCC1NS(=O)(=O)c1ccccc1 (configuration not stated)	i
c1ccc(Cc2nnc3sc(-c4ccc5c(c4)OCCO5)nn23)cc1	4.2
CC(/C=C/c1cccs1)=C\C(=O)O	i
CC1(C)Cc2ccccc2-c2nnc(-c3cccc(O)c3)n21	0.3
COC(=O)C(NNc1ccccc1)(NC(=O)c1ccc(F)cc1)C(F)(F)F (configuration not stated)	i

6 structures out of the list, sorted by SMILES length, falling:
SMILES	H5N1 antiviral
O=C(NCC(=O)N(CC1CCCO1)C1(C(=O)NC2CCCCC2)CCCCC1)c1ccccc1 (configuration not stated)	1.4
CCCCn1c(CN2CCN(C(=O)OCC)CC2)nc2c1c(=O)[nH]c(=O)n2C	1.8
COC(=O)C(NNc1ccccc1)(NC(=O)c1ccc(F)cc1)C(F)(F)F (configuration not stated)	i
Cc1cccc(NC(=O)C23CCC(C)(/C(=N/O)C2)C3(C)C)c1 (configuration not stated)	2.8
Cn1c(=O)oc2cc(S(=O)(=O)NC3CCCCCCC3)ccc21	1.0
CC1(C)Cc2ccccc2-c2nnc(-c3cccc(O)c3)n21	0.3

Next part.
SMILES	H5N1 antiviral
Cc1ccccc1NC(=O)CC1SCCNC1=O (configuration not stated)	0.2
COc1ccc(S(=O)(=O)N(CCCN2CCOCC2)Cc2ccc(OC)c(OC)c2)cc1	i
O=C(C1=C(O)C(=O)N(Cc2ccco2)C1c1ccccc1)c1cccs1 (configuration not stated)	i
Cc1cccc(C(C)(C)C)c1OCCCCN1CCCC1	i
CCCc1cc(=O)[nH]c(SCC(=O)N2CCN(c3ccc(F)cc3)CC2)n1	0.4
Cc1cc2n(n1)C(c1ccccc1)Nc1ccccc1-2 (configuration not stated)	i
COc1ccc(NC(=O)c2oc3ccc(S(=O)(=O)N4CCC5(CC4)OCCO5)cc3c2C)cc1	0.7
CC(C)c1nc(N2CCOCC2)c(C#N)c2c1CCC2	1.8
Cc1cn(S(=O)(=O)c2ccc(Br)cc2)cn1	0.1
CC1(C)CC(=O)c2cnn(-c3nc4ccccc4[nH]3)c2C1	6.5
CN(CC(=O)NCCC1=CCCCC1)S(=O)(=O)c1ccc2c(c1)CCC(=O)N2	2.1
O=C1CC(N2CCN(Cc3ccc4c(c3)OCO4)CC2)C(=O)N1c1cccc(Cl)c1 (configuration not stated)	1.9
Cc1ccc(NC(=O)/C(=C\c2cccc([N+](=O)[O-])c2)NC(=O)c2cccs2)cc1	i
Cc1ccc(NC(=O)COC(=O)CN2CSCC2=O)cc1C	i
COc1ccc(N2CCN(C(=S)Nc3cccc(C)c3)CC2)cc1	0.6
Cc1cc(SCC(N)=O)nc(SCC(=O)c2ccccc2)n1	i
CS(=O)(=O)N1CCCC(C(=O)NCCCN2CCc3ccccc3C2)C1 (configuration not stated)	0.2
Cc1nc2oc(C(=O)c3ccc(Br)cc3)c(N)c2c2c1COC(C)(C)C2	i
COc1ccccc1C1CC(=O)Nc2cc3c(cc21)OCCO3 (configuration not stated)	0.2
O=C(O)C(c1ccccc1)C1(O)CCCC1 (configuration not stated)	0.1
CCOC(=O)c1c(NCC2CCCO2)c2ccccc2[nH]c1=O (configuration not stated)	0.5
CCOCc1nnc(NC(=O)c2c(OC)cccc2OC)s1	0.4
Cn1c(SCC(N)=O)nnc1C1CCN(C(=O)NCc2ccccc2)CC1	1.0
CN(C)S(=O)(=O)c1ccc(S(=O)(=O)N(CC(=O)Nc2ccccc2)CC2CCCO2)cc1 (configuration not stated)	i
Cn1c(=O)c2c(ncn2CCCc2ccccc2)n(C)c1=O	0.2
CCOc1ccccc1-n1c(COc2ccccc2)nnc1SCC(N)=O	0.6
O=C(Cn1cc2c(n1)CCCC2)NCCCN1CCN(c2ccccc2F)CC1	i
CCS(=O)(=O)N1CCN(S(=O)(=O)c2ccccc2)CC1	0.5
O=C(CCCc1nc(-c2ccc(Cl)cc2)no1)Nc1cccnc1	0.3
Cn1c(CCNC(=O)c2ccccc2Cl)n[nH]c1=S	0.4
CCOC(=O)Cn1nnnc1C(CC)N(Cc1cccs1)Cc1cc2ccc(OC)cc2[nH]c1=O (configuration not stated)	0.1
C=CCn1c(CNC(=O)c2ccccc2C)nnc1SCC(=O)NC1CCCC1	i
O=C(OCc1ccccc1Cl)c1ccccc1C(=O)c1ccccc1	i
CCOC(=O)c1ccc(N2C(=O)C=CC2=O)cc1	i
CCOc1ccc(-c2nnn(CC(=O)NCCc3c[nH]c4ccccc34)n2)cc1	0.1
COc1ccccc1Nc1nc(C)cc(C)c1C(N)=O	0.0
O=C(Cn1ccsc1=NC(=O)c1ccco1)c1ccccc1	1.2
CN(CC(O)COc1ccc(S(=O)(=O)N2CCOCC2)cc1)C1CCCCC1 (configuration not stated)	0.4
COc1ccc(NCc2cc3ccccc3[nH]c2=O)cc1	i
COc1ccc(NC(=O)CC2SC(=Nc3ccccc3)NC2=O)c(OC)c1 (configuration not stated)	i
COc1ccc(NC(=O)/C(Cl)=C(/Cl)S(=O)Cc2ccc(C)cc2)cn1 (configuration not stated)	i
Cc1ccc(-n2c(SCC(=O)OC(C)C)nnc2-c2ccccn2)cc1	i
CCC(C)[C@H](NC(=O)NCC1CCCO1)C(=O)OC (some centres not stated)	0.1
O=C(O)C1CC(c2ccccc2)=NO1 (configuration not stated)	0.7
CC1CC(C(F)(F)F)n2nc(C(=O)O)cc2N1 (configuration not stated)	i
CCN(CC)CCCN1C(=O)C(=O)/C(=C(/O)c2ccc3c(c2)OCCO3)C1c1ccco1 (configuration not stated)	i
CCOC(=O)C1=C(N)Oc2c(c(=O)[nH]c3ccccc23)C1c1ccccc1 (configuration not stated)	i
CN1CC(=O)N(CC(=O)Nc2ccc(F)cc2)c2ccccc2C1=O	0.8
CCOC(=O)N1CCC(NC(=O)Cn2c3ccccc3c3cn[nH]c(=O)c32)CC1	i
CSc1ccccc1-c1nnc(-c2ccccc2)o1	i
Cc1ccc(NC(=O)CSc2n[nH]c(-c3ccncc3)n2)cc1C	i
CC1CCN(C(=O)CSc2nnc(CSc3ncccn3)n2C)CC1	1.5
Cc1ccc(C(=O)N/C(=C/c2ccco2)C(=O)Nc2cccc(C)c2)cc1	i
CCCc1ccc(OCc2ccc(C(=O)N3CCN(c4ccccn4)CC3)o2)c(OC)c1	4.6
Cc1ccc2c(c1)[C@@H]1CN(C)CC[C@@H]1N2C(=O)Nc1cccc(C(F)(F)F)c1	i
Cc1ccc(N2C(=O)CC(Sc3ncn[nH]3)C2=O)cc1 (configuration not stated)	i

2 compounds drawn at random from those above, as already listed:
SMILES	H5N1 antiviral
COc1cccc(N2C(=O)CC(N3CCC(C(N)=O)(N4CCCCC4)CC3)C2=O)c1 (configuration not stated)	i
Cc1nnc(SCCC(C)C)[nH]c1=O	0.3

Bioassay records from PubChem BioAssay.

This is a subset; the hit share may differ from the screen's.
